Ab BasE inh = BasE siderophore biosynthesis inhibition; 0.1% of 84,000 active; purified BasE, fluorescence polarization binding displacement; inhibition, % (no concentration beside the values);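 active = both replicates above 25% with normal brightness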;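 also: 0% = negative plate control signal and 100% = positive plate control signal; stock transfer was 100 nL into about 30 µL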
KSHV LANA nucl = LANA-nucleosome interaction inhibition. AID 720717. FITC-LANA1-23 / chicken nucleosome fluorescence polarization; active compounds read low. 0.3% of 51,000 active. z-score (concentration not given with the values);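 active = both repeat wells score below -2 in polarization z-score versus plate sample wells, excluding overly bright wells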;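 also: 100 nL library stock added to about 30 µL; numbers are from one replicate; some results filed as inactive read as strong as hits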
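Assay system: purified chicken nucleosomes with FITC-labelled LANA N-terminal peptide (1-23) / Probe or stimulus: 50 nM FITC-LANA1-23 probe / Compound dosing: pin-transferred compound, 100 nL / Times: compound with peptide–nucleosome mix 10–45 min at room temperature / Technique: fluorescence polarization, 480 nm excitation, 535 nm parallel and perpendicular emission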
* = called active by the depositor; · = not tested or not shown; & = joins results of further samples. The list is partial; count on the stated rates, not on these rows.

SMILES | Ab BasE inh | KSHV LANA nucl
CN(Cc1c(F)cccc1Cl)C(=O)C1=CC=CN2CCS(=O)(=O)N=C12 | -0.3 | ·
CCC(=O)Nc1nnc(-c2ccc(Cn3c(-c4cncs4)nc4ccccc43)cc2)s1 | 1.1 | 0.66
COC(=O)C1=C(C)N(C)C(=O)/C1=C\c1ccco1 | 2.5 | 0.47
Cc1nc(Nc2nc3ccccc3s2)[nH]c(=O)c1Cc1ccccc1 | 3.1 | -0.79
Cc1ccc(-n2c(C)cc(/C=C(\C#N)C(=O)N3CCCCC3)c2C)cc1 | 3.0 | ·
O=C(Nn1cnnc1)c1cc2ccccc2oc1=O | 0.6 | -0.14
CN(C)CCCNc1ncnc2ccc(Br)cc12 | -1.1 | -0.69
Cc1onc(-c2c(F)cccc2Cl)c1C(=O)OCC(=O)N(C)c1ccccc1 | 2.2 | ·
Cc1ccc(S(=O)(=O)NC(=O)Nc2ccccc2)cc1 | 1.4 | ·
CCc1ccc2c(CN3CCN(Cc4ccccc4)CC3)cc(=O)oc2c1 | 0.3 | ·
C=CCn1c(SCC(=O)Nc2ccccc2)nc2scc(-c3cccs3)c2c1=O | 0.8 | ·
CC1SCC(=O)N(CC(=O)Nc2ccc3c(c2)OCO3)C1=O (stereo not given) | 1.5 | -0.65
CN(C(=O)CSc1nc2ccc(Br)cc2c(=O)n1Cc1ccco1)C1CCS(=O)(=O)C1 (stereo not given) | 1.4 | ·
Cc1ccc(NC(=O)N(C2=NCC(C)(C)S2)c2ccc(F)c(Cl)c2)cc1 | -1.2 | ·
Cc1cc(C)c(S(=O)(=O)N2CCC(C(=O)OC(C)C(=O)N3CCC(C)CC3)CC2)c(C)c1 (stereo not given) | -0.5 | ·
CC1=C(c2ccc(F)cc2)N2CCS(=O)(=O)N=C2S1 | 0.6 | ·
N#Cc1ccc(CSc2nnnn2C2CC2)cc1 | 2.6 | ·
COC(=O)c1ccc(S(=O)(=O)NC2CCN(Cc3ccccc3)CC2)n1C | 0.2 | ·
Cc1ccc(C2c3c(oc4ccccc4c3=O)C(=O)N2Cc2ccco2)cc1 (stereo not given) | -2.3 | 2.6
CN(Cc1ccccc1F)C(=O)CNC(N)=O | 4.7 | ·
O=C1NC(=Nc2cccc3ccccc23)SC1(CO)CO | 0.9 | ·
COc1ccc(C(CC(=O)O)NS(=O)(=O)c2ccccc2F)cc1OC (stereo not given) | 1.8 | ·
O=C(COc1ccccc1Cl)NC(=O)NCC1COc2ccccc2O1 (stereo not given) | 3.6 | ·
CN(Cc1ccccc1)C(=O)Cc1noc2ccccc12 | 1.7 | 0.041
COC(=O)c1ccc(COn2c(=O)c[n+]([O-])c3ccccc32)cc1 | 1.1 | 0.036

Part of the list above in order of number of heavy atoms, smallest number first:
SMILES | Ab BasE inh | KSHV LANA nucl
CN(Cc1ccccc1F)C(=O)CNC(N)=O | 4.7 | ·
O=C(COc1ccccc1Cl)NC(=O)NCC1COc2ccccc2O1 (stereo not given) | 3.6 | ·
CCc1ccc2c(CN3CCN(Cc4ccccc4)CC3)cc(=O)oc2c1 | 0.3 | ·

Carrying on.
SMILES | Ab BasE inh | KSHV LANA nucl
O=C(CCc1ccc(S(=O)(=O)N2CCOCC2)cc1)N/N=C/c1cccc(O)c1 | 4.3 | ·
CCn1c(NN)nc2ccccc2c1=O | -0.5 | ·
CCOc1ccc(OC(C)C(=O)O)cc1 (stereo not given) | 1.5 | 0.059
N#CCOC(=O)c1c2c(nc3ccccc13)CCC2 | -1.5 | ·
COc1ccccc1-n1cnc2cc(C(=O)NCC3CCCO3)ccc21 (stereo not given) | -0.4 | -0.11
O=C(NN=Cc1ccc(O)cc1)c1ncn[nH]1 | 17 | -0.17
CCOC(=O)c1ccc2c(c1)nnn2CCc1ccccc1 | -2.7 | 0.81
CNC(=O)c1c(-c2ccc(C)cc2)nc2ccccn12 | 0.2 | ·
CCN(CC)S(=O)(=O)c1cc(C)ccc1NC(=S)NCCN1CCOCC1 | 1.4 | ·
O=C1C2C3c4ccccc4C(c4ccccc43)C2C(=O)N1C(CO)(CO)CO (stereo not given) | 0.2 | -0.48
c1ccc(-c2nnc(-c3cccc4ccccc34)o2)cc1 | 2.7 | ·
O/N=C(\c1ccccc1)C(O)c1ccccc1 (stereo not given) | -1.2 | ·
CCn1c(CNC(=O)N(c2ccccc2)c2ccccc2)nnc1SC | -0.4 | -0.2
S=C(NCc1ccco1)NCC1CCCO1 (stereo not given) | -1.1 | -0.93
Cc1cc(/C=N/n2c(SCC(=O)O)nnc2C2CCCCC2)c(C)n1CC(C)C | -0.3 | ·
COc1cc(NC(=O)C2=C(N3CCOCC3)/C(=C\c3ccc(N(C)C)cc3)CCC2)cc(OC)c1OC | 0.2 | ·
Cc1ccc(CNC(=O)C2CCCN(S(=O)(=O)c3c(C)noc3/C=C/N(C)C)C2)cc1 (stereo not given) | -3.8 | -0.38
N#C/C(=C\c1ccc(C(F)(F)F)cc1)c1cccc(C(F)(F)F)c1 | -0.2 | ·
COC(=O)c1cc(C(=O)c2ccccc2)n2c(=O)/c(=C\N(C)C)sc12 | -5.7 | ·
CSc1nc2c(c(=O)[nH]1)C(c1ccc3c(c1)OCO3)CC(=O)N2 (stereo not given) | 4.6 | -0.31
CCOc1cc(C)nc(NCCc2ccc(OC)c(OC)c2)n1 | -1.8 | 0.41
O=C(NC(C(=O)O)c1ccccc1)c1cccs1 (stereo not given) | 0.9 | -0.66
N#CCNc1ccccc1 | 1.6 | ·
CNC(=O)CSCc1c(C)noc1C | 0.2 | ·
Cc1cc(C)n(-c2nc3ccccc3nc2N2CCN(S(=O)(=O)c3ccccc3)CC2)n1 | -0.6 | 0.67

Looked up by structure from the entries so far:
SMILES | Ab BasE inh | KSHV LANA nucl
CNC(=O)c1c(-c2ccc(C)cc2)nc2ccccn12 | 0.2 | ·
CSc1nc2c(c(=O)[nH]1)C(c1ccc3c(c1)OCO3)CC(=O)N2 (stereo not given) | 4.6 | -0.31
N#CCNc1ccccc1 | 1.6 | ·
CCn1c(NN)nc2ccccc2c1=O | -0.5 | ·
CCOc1cc(C)nc(NCCc2ccc(OC)c(OC)c2)n1 | -1.8 | 0.41
N#CCOC(=O)c1c2c(nc3ccccc13)CCC2 | -1.5 | ·

Back to the main list, starting six compounds before the break.
SMILES | Ab BasE inh | KSHV LANA nucl
CSc1nc2c(c(=O)[nH]1)C(c1ccc3c(c1)OCO3)CC(=O)N2 (stereo not given) | 4.6 | -0.31
CCOc1cc(C)nc(NCCc2ccc(OC)c(OC)c2)n1 | -1.8 | 0.41
O=C(NC(C(=O)O)c1ccccc1)c1cccs1 (stereo not given) | 0.9 | -0.66
N#CCNc1ccccc1 | 1.6 | ·
CNC(=O)CSCc1c(C)noc1C | 0.2 | ·
Cc1cc(C)n(-c2nc3ccccc3nc2N2CCN(S(=O)(=O)c3ccccc3)CC2)n1 | -0.6 | 0.67
O=C(N/N=C1/CSC(=O)N1Cc1cccs1)c1cccs1 | -0.8 | 0.007
NC(=O)COC(=O)c1cccc(S(=O)(=O)N2CCc3ccccc32)c1 | -1.1 | ·
O=C(Nc1cc2ccc(O)cc2oc1=O)c1cccc(C(F)(F)F)c1 | · | 0.011
O=C(Cc1ccccc1)c1cc(O)c(O)cc1O | 14 | -0.13
COc1ccc(OC)c(S(=O)(=O)NNC(=S)Nc2ccc3c(c2)OCO3)c1 | 16 | 0.15
COCCN(C(=O)c1noc2c1CCCCC2)C1CCN(C(C)=O)CC1 | 4.0 | ·
CC(=O)N(CN1C(=O)CCC1=O)c1ccc(Cl)c(Cl)c1 | -1.8 | -0.22
CN1CCC(N(C)C(=S)Nc2ccccc2)CC1 | -1.1 | 0.88
CCn1ncc2c1N1COCN(C2)c2c(cnn2CC)C1 | 0.3 | ·
O=C(CC(O)(c1ccccc1)C(F)(F)F)c1cccs1 (stereo not given) | 1.3 | 1.3
COC(=O)C1CCN(C(=O)CCOc2ccc(OC)cc2)CC1 | -1.0 | -0.65
Cc1cccc(NC(=O)CNC(=O)CSc2nnnn2-c2ccccc2)c1C | 0.4 | ·
CCOc1ccc(NC(=O)COC(=O)c2cccc(OC)c2)cc1 | -1.4 | ·
COc1cc2c3c(c1OC)C1(C=CC(=O)C=C1)CC3N(C(C)=O)CC2 (stereo not given) | -1.3 | 0.62
CC(=O)N1c2ccc(S(=O)(=O)NC(Cc3ccccc3)C(=O)N3CCCCC3)cc2CC1C (stereo not given) | 0.3 | -1.7
O=C(O)C(Cc1c[nH]c2ccccc12)Nc1ncnc2c1oc1ccccc12 (stereo not given) | -0.8 | 0.093
O=C(NN=C(c1ccccc1)c1ccccc1)c1ccco1 | 0.3 | -0.68
COc1ccc(-c2csc(/C(C#N)=C(\O)CSc3nccn3C)n2)cc1OC | 31* | ·
CC(C)(C)/C(N)=N/S(=O)(=O)c1cc(C(F)(F)F)cc(C(F)(F)F)c1 | 2.4 | ·
NNc1ncnc2ccccc12 | 2.9 | ·
NCCSc1nnc2c(n1)[nH]c1ccccc12 | 1.3 | 0.25
OC1CCN(c2ncc(C(F)(F)F)cc2Cl)CC1 | · | -0.16
CC(Oc1ccccc1)c1nn2c(-c3cccnc3)nnc2s1 (stereo not given) | -2.1 | -0.42
O=C(Cn1c(CO)nc2ccccc21)NCC(F)(F)F | 6.8 | ·
O=S1(=O)CCC(NC(=S)Nc2ccccn2)C1 (stereo not given) | -1.8 | -0.2
SMILES | Ab BasE inh | KSHV LANA nucl
NC(=O)c1cc2c([nH]c1=O)CCCCCCCCCC2 | 4.2 | -0.48
Cc1ccc(CC(C(=O)O)C(C)C(=O)Nc2ccc(F)cc2)cc1 (stereo not given) | 0.9 | ·
CC(C)C(=O)Nc1ccccc1C(=O)O | -0.7 | 0.47
O=C(NCc1ccccn1)c1ccc2c(c1)CCN2S(=O)(=O)c1ccc(Cl)cc1 | -6.3 | -0.11
C=CCn1c(=O)c2ccccc2n2c(SCc3c(C(=O)OC)sc(N)c3C(=O)OC)nnc12 | -1.1 | ·
CC(=O)NCCCc1[nH]n(-c2ccccc2)c(=O)c1NC(=O)c1ccccc1 | 0.4 | ·
Cn1c(=O)oc2cc(S(=O)(=O)N3CC=C(c4ccccc4)CC3)ccc21 | -4.0 | 0.97
CC1=NN(c2ccccc2)C(=O)/C1=C/c1c(C)[nH]n(-c2ccccc2)c1=O | 4.2 | 0.49
O=S(=O)(NCc1ccc(Cl)cc1Cl)c1ccc(N2CCOCC2)nc1 | -1.1 | 1.4
CC(=O)N1c2ccc(S(=O)(=O)NCC3CCC(C(=O)NC4CCCC4)CC3)cc2CC1C (stereo not given) | -1.4 | 1.6
O=C(OCCCn1c(=O)[nH]c2ccccc21)c1ccc(S(=O)(=O)N2CCOCC2)cc1 | 0.5 | ·
N/C(=N\S(=O)(=O)c1ccc(Cl)cc1)Nc1nc2ccccc2o1 | 2.2 | ·
Cc1cc(C=C(C#N)C#N)c(C)n1-c1ccccc1 | -3.6 | -0.68
COc1ccc(-n2cnnc2SC(C)C(=O)N2CC(C)CC(C)C2)cc1 (stereo not given) | 1.0 | ·
CCCCn1nc(C(=O)N2CCN(S(=O)(=O)c3ccccc3)CC2)c2ccccc2c1=O | 2.1 | ·
Clc1ccc(N=c2scc(-c3cccs3)n2CCCN2CCOCC2)cc1 | 2.0 | -0.11
OC1(c2ccccc2)C2CC3CC(C2)CC1C3 (stereo not given) | 4.3 | ·
CCCN1CCC(NC(=O)Nc2cccc(F)c2)CC1 | 1.6 | -1.1
Nc1c(C(=O)CCC(=O)O)oc2ccccc12 | -0.4 | 2.2
O=S(=O)(NCc1ccccc1)c1ccc2c(c1)OCCO2 | 1.4 | ·
O=C(ON(C(=O)c1ccc(F)cc1)C1C2CC3CC(C2)CC1C3)c1ccc(F)cc1 (stereo not given) | 3.8 | ·
O=C1CC(c2ccccc2)OC12CCCCC2 (stereo not given) | 2.1 | ·
CC(C)CNc1nc(SCC(N)=O)nc(N2CCOCC2)n1 | 0.0 | 0.44
COC(=O)CCCc1nc2ccccc2s1 | 0.9 | -1.3
CC(C)(C)OC(=O)Nc1ccccc1C(=O)O | -0.2 | 0.3

An excerpt from above in order of their number in KSHV LANA nucl, high to low:
Structure	KSHV LANA nucl
Nc1c(C(=O)CCC(=O)O)oc2ccccc12	2.2
CC1=NN(c2ccccc2)C(=O)/C1=C/c1c(C)[nH]n(-c2ccccc2)c1=O	0.49
Clc1ccc(N=c2scc(-c3cccs3)n2CCCN2CCOCC2)cc1	-0.11

(cont.)
SMILES | Ab BasE inh | KSHV LANA nucl
OC1(c2ccc(OC(F)F)cc2)CSC(=Nc2cccnc2)N1C1CC1 (stereo not given) | 0.5 | ·
CC(C)c1ccc(NC(=O)N2CCCC2C(=O)Nc2ccc(-n3cnnn3)cc2)cc1 (stereo not given) | 0.4 | -0.81
CN(Cc1ccccc1)c1csc2ccccc2c1=O | 3.1 | -0.27
Cc1cc(C)c2ccc(/C=N/O)nc2c1O | 2.5 | ·
O=C(COCc1cc(-c2ccc(F)cc2)on1)NCCC1=CCCCC1 | -0.3 | 0.39
CCOc1cc(/C=C2/SC(=S)N(C(CC)C(=O)O)C2=O)ccc1O (stereo not given) | -4.7 | 0.042
O=c1oc2cc(O)ccc2cc1-c1nc(-c2ccccc2F)no1 | 2.0 | 1.7
CCCc1c(C(=O)OCC)sc(N)c1C#N | 0.9 | 0.91
O=c1c2ccccc2[nH]c2ncccc12 | 1.8 | -0.13
O=S1(=O)N=C(O)c2ccccc21 | 0.8 | 0.96
C/C(=N\OCC(=O)N1c2ccccc2CC1C)c1ccc(S(=O)(=O)N(C)C)cc1 (stereo not given) | -2.4 | ·
CCOC(=O)OC(C)OC1=C(C(=O)Nc2ccccn2)N(C)S(=O)(=O)c2ccccc21 (stereo not given) | · | -0.15&-0.19

Bioassay records: PubChem BioAssay, ICCB-Longwood Screening Facility, Harvard Medical School
